# MITF primary = human MITF inhibition, primary screen; AlphaScreen MITF homodimerization, bead proximity signal; inhibition, % at 2.6 µM; O75030; 0.91% of 650,000 active; in the data active = inhibition above about 50%;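 note: 0% = vehicle wells with protein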
# Target sequence (O75030 whole entry, looked up): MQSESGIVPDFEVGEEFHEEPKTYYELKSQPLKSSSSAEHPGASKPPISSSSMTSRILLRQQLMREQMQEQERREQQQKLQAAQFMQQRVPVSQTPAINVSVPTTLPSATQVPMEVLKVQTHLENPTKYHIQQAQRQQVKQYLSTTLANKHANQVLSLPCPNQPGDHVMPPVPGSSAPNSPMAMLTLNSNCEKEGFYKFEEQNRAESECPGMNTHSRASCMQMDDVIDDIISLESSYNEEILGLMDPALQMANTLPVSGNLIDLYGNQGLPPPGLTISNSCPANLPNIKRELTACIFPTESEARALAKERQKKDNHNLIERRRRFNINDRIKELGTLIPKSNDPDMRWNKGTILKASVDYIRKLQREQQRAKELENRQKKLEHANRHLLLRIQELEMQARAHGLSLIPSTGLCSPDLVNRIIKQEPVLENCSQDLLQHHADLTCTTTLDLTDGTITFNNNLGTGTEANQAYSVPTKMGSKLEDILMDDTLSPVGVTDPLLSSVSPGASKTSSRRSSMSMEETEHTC
# GPR151 ag = human GPR151 activation | Q8TDV0 | PathHunter beta-arrestin GPR151 cells, luminescence | activation, % at 11.2 µM | 1% of 650,000 active | AID 1508602; in the data active = activation above about 4.9%;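 note: 0% = median of compound wells and 100% = cells with positive control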
# FBW7 act = activators of human E3 ligase FBW7; AlphaScreen FBW7–phospho-cyclin E peptide binding, activator screen; 0.13% of 650,000 active; Q969H0; normalized activity (activation), % at 26.1 µM; in the data active = normalized activity above about 1.9%;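 note: purified mutant Fbw7 with reduced substrate affinity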
# Active calls of the source: *. Not all compounds are listed; count on the stated rates, not on these rows.
SMILES,MITF primary,GPR151 ag,FBW7 act
O=C(Nc1sc2c(c1C(=O)O)CCCCC2)c1ccccc1Cl,18,0.6,0.0
Cc1ccc(/C=C2\SC(=S)NC2=O)cc1,7,-1.4,0.6
CCCN(CC#Cc1ccccc1)CCC,0,-0.8,-0.1
O=C(O)c1ccc2c(c1)C(=O)N(c1cccc(C(=O)OCC(=O)c3ccccc3)c1)C2=O,15,-2.9,1.1
Cc1ccccc1/C=C1/SC(N)=NC1=O,7,0.9,0.1
O=C1NC(=S)S/C1=C/c1cccnc1,11,2.2,0.0
COc1ccccc1CNC(=O)c1ccc2cnccc2n1,-10,0.8,0.0
CCOc1ccc(S(=O)(=O)N(CC(=O)N2CCc3ccccc3C2)c2ccc(C)cc2)cc1,5,0.0,0.0
CC1=C(C(=O)OC(C)C)C(c2cccc([N+](=O)[O-])c2)NC(=O)N1 (configuration not stated),11,-1.2,0.0
COC(=O)C(CC(C)C)NC(=O)Cn1cnc2c1c(=O)n(C)c(=O)n2C (configuration not stated),-4,0.0,0.0

# Filtered by structure: the entries above with a carbonyl joined to an NH by a bond outside any ring.
SMILES,MITF primary,GPR151 ag,FBW7 act
O=C(Nc1sc2c(c1C(=O)O)CCCCC2)c1ccccc1Cl,18,0.6,0.0
COc1ccccc1CNC(=O)c1ccc2cnccc2n1,-10,0.8,0.0
COC(=O)C(CC(C)C)NC(=O)Cn1cnc2c1c(=O)n(C)c(=O)n2C (configuration not stated),-4,0.0,0.0

# (cont.)
SMILES,MITF primary,GPR151 ag,FBW7 act
COc1ccc(/C=N/NC(=O)Nc2ccccc2)cc1,-12,0.6,0.1
Cc1cc(NC(=O)COc2ccc(Cl)cc2Cl)n(C(C)C)n1,25,2.2,0.8
Cc1cccc(/C=C2/SC(N)=NC2=O)c1,-3,1.7,-0.1
O=c1c(-c2ccccc2Cl)coc2c(O)c(O)ccc12,13,2.4,-0.2
Fc1cccc(Cl)c1C1C=C(c2ccc(Br)cc2)Nc2ncnn21 (configuration not stated),6,0.3,0.0
Nc1nonc1-c1nc2ccccc2n1Cc1cccc(Br)c1,11,-1.2,-0.1
Cc1nnc(Nc2ccccc2)s1,2,-1.9,0.1
COc1cc(C=Nc2ccccc2)ccc1O,24,-0.3,0.3
CCOC(=O)c1c(C)oc2ccc(O)cc12,3,-0.9,0.0
COc1ccc(S(=O)(=O)N(CC(=O)Nc2ccc(Cl)cc2Cl)Cc2ccccc2)cc1,-2,-0.9,-0.1

# An excerpt of these results, tab-delimited.
smiles	MITF primary	GPR151 ag	FBW7 act
O=C(O)c1ccc2c(c1)C(=O)N(c1cccc(C(=O)OCC(=O)c3ccccc3)c1)C2=O	15	-2.9	1.1
Cc1ccccc1/C=C1/SC(N)=NC1=O	7	0.9	0.1

# Following part:
SMILES,MITF primary,GPR151 ag,FBW7 act
O=C(/C=C/c1ccc(F)cc1)c1ccccc1,14,-1.4,0.1
COc1ccccc1-n1c(=O)[nH]c2c(C(N)=O)nc(-c3cccc(Br)c3)nc21,-1,0.3,-0.1
Cc1ccccc1-c1nc(=S)[nH][nH]1,12,-1.4,0.1
O=C(Nc1ncc([N+](=O)[O-])s1)c1ccccc1F,-5,-11,-0.1
COc1cccc(Nc2nc(-c3ccc(OC)c(OC)c3)nc3ccccc23)c1,-4,0.6,0.1

# Entries listed so far that contain an NH in an aromatic ring:
SMILES,MITF primary,GPR151 ag,FBW7 act
COc1ccccc1-n1c(=O)[nH]c2c(C(N)=O)nc(-c3cccc(Br)c3)nc21,-1,0.3,-0.1
Cc1ccccc1-c1nc(=S)[nH][nH]1,12,-1.4,0.1

# Not a retest: 3 of the compounds above.
SMILES,MITF primary,GPR151 ag,FBW7 act
COc1ccc(S(=O)(=O)N(CC(=O)Nc2ccc(Cl)cc2Cl)Cc2ccccc2)cc1,-2,-0.9,-0.1
O=C(/C=C/c1ccc(F)cc1)c1ccccc1,14,-1.4,0.1
COc1ccccc1-n1c(=O)[nH]c2c(C(N)=O)nc(-c3cccc(Br)c3)nc21,-1,0.3,-0.1
